Mtb betalactam – beta-lactam sensitization of Mtb H37Rv; M. tuberculosis H37Rv growth with meropenem, percent inhibition; hits of this screen are not shown here; inhibition, % at 25 µM; 0.27% of 330,000 active; AID 434955;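 active means about 74% or more and at least 40 points above the plate without the antibiotic, then above 30% in a dose series; inconclusive means first-round hits that could not be retested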;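 further: growth measured after seven days incubation then overnight dye step; 0% = bacteria only wells and 100% = bacteria with antibiotic; twin plates without the antibiotic show which effects depend on it; some results filed as inactive read as strong as hits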
RecA intein inh – inhibitors of M. tuberculosis RecA intein splicing | cell-free RecA intein splicing, fluorescence | inhibition, %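 (about 9 µM by stock and volumes)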 | 0.75% of 290,000 active; in the data active means inhibition above about 30%; inconclusive means no clear call, values can overlap the other calls;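 further: 0% = vehicle wells and 100% = reference inhibitor control wells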
Target sequence (P9WHJ3 whole entry, looked up): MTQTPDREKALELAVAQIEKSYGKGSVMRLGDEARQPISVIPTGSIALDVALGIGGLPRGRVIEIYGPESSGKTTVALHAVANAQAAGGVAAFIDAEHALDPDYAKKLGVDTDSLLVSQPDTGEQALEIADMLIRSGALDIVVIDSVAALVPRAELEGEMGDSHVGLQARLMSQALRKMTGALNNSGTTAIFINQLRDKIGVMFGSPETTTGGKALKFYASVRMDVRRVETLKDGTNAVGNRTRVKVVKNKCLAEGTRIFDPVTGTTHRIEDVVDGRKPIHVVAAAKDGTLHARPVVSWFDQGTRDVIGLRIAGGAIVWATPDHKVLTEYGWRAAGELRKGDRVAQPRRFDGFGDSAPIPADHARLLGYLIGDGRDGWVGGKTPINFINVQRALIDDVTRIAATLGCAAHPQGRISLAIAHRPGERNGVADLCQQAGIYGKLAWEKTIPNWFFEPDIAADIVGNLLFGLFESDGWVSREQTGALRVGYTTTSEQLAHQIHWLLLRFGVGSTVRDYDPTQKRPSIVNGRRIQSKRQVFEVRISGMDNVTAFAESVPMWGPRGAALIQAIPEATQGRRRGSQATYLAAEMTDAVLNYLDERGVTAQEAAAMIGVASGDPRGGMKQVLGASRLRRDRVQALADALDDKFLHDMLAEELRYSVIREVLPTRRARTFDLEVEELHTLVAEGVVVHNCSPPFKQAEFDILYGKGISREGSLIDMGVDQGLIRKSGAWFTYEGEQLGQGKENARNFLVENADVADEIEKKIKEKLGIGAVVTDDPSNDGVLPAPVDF
YopH inh – blocks Yersinia enterocolitica YopH tyrosine phosphatase; 0.16% of 140,000 active; AID 898; fluorescence Ex485/Em525; inhibition, %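 (about 10 µM by stock and volumes)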;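 active means inhibition of 50% or more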;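 further: controls were vehicle for no effect and minimum signal wells for full effect; inactives centre near -20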
Mtb H37Rv – M. tuberculosis H37Rv growth inhibitors, H37Rv strain (AID 1626); M. tuberculosis H37Rv growth inhibition; higher % means a stronger effect; one-dose inhibition, % at 10 µM; IC50 in µM for titrated hits; 0.95% of 220,000 active;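 active means confirmed in a dose series; inconclusive means inhibition above 80% but not taken into the dose series; inactive means below 80% or under 30% at every dose of the series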;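 further: bacteria incubated seven days before Alamar blue readout; 0% = bacteria only wells and 100% = bacteria with antibiotic wells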
Arbovirus inh – arbovirus infection inhibition | arbovirus infection cell-based antiviral screen | inhibition, % at 10 µM | 0.37% of 200,000 active;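 active means inhibition from about 30%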;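 further: bluetongue infection of BSR cells; cell survival read as ATP light after 72 h; 0% = infected wells without compound and 100% = uninfected wells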
Arbovirus inh repeat – recorded beside Arbovirus inh, whose call it bears; inhibition, %; measured here: 10K subset replicate screen; many hits read low in the repeat;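 first of two repeat runs on a subset; 0% = infected and 100% = uninfected wells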
The depositor's hits bear a star.

CC(C)(C)c1ccc(C(=O)NCc2nnc(SCC(=O)N3CCCc4ccccc43)n2-c2ccccc2)cc1 was read as Mtb betalactam -3, RecA intein inh 2.4, YopH inh -16, Mtb H37Rv 3% and Arbovirus inh -5.
Screening CC(OC(=O)c1ccc(NS(=O)(=O)c2ccc3[nH]c(=O)[nH]c3c2)cc1)C(N)=O (centres undefined) returned Mtb betalactam 1 and RecA intein inh -0.5.
For NS(=O)(=O)c1ccc(CCn2c(=S)[nH]c3ccc(F)cc3c2=O)cc1 the results were Mtb betalactam -6, RecA intein inh 2.3, Mtb H37Rv 2% and Arbovirus inh -2.
Cc1ccc[n+](CC(=O)Nc2cccc(Cl)c2)c1 was read as Mtb betalactam 0 and RecA intein inh 0.2.
Screening CCOC(=O)c1c(NC(=O)C(C)Sc2cn(C)c3ccccc23)sc2c1CCC2 (centres undefined) returned Mtb betalactam -3, RecA intein inh -3.7, YopH inh -6 and Arbovirus inh 7.
For O=C(O)[C@@H]1CSC2c3ccccc3C(=O)N21 (some centres undefined) the results were Mtb betalactam -3 and RecA intein inh 1.4.
`COC(=O)c1cc2occc2n1Cc1nc(-c2ccccc2Cl)oc1C` gave Mtb betalactam -7, RecA intein inh 0.6, YopH inh -34 and Arbovirus inh -10.
For Cc1c(Nc2nc3ccccc3nc2NS(=O)(=O)c2ccccc2)c(=O)n(-c2ccccc2)n1C the results were Mtb betalactam 0, RecA intein inh -0.8, YopH inh -49, Mtb H37Rv -14% and Arbovirus inh 8.
Screening CCOc1cc(/C=C2/C(=N)N3C=CSC3=NC2=O)ccc1OCCCOc1ccccc1C returned Mtb betalactam 5, RecA intein inh -8.6, YopH inh -2, Mtb H37Rv 14% and Arbovirus inh -3.
Screening N#CCSc1nc2c(c(=O)n1Cc1ccccc1)C1(CCCC1)Cc1ccccc1-2 returned Mtb betalactam -13, RecA intein inh 22, YopH inh -20, Mtb H37Rv 7% and Arbovirus inh -9.
For CCNC(=S)NNC(=O)CCn1cc(C)cn1 the results were Mtb betalactam -6, RecA intein inh -0.3, YopH inh 1, Mtb H37Rv 0% and Arbovirus inh -2.
Screening Cc1ccc(Cl)cc1N1CCN(Cc2cc3c(cc2O)CCC3)CC1 returned Mtb betalactam -9, RecA intein inh 2.3, YopH inh -4, Mtb H37Rv 2% and Arbovirus inh 13.
Screening CCN(CC)CCNC(=O)C(=O)Nc1cc2c3c(c1)CC(=O)N3CCC2 returned Mtb betalactam -5 and RecA intein inh -0.8.
C/C(=N\O)c1ccc2c3c([nH]c2c1)CCCC3 was read as Mtb betalactam 21, RecA intein inh -12, YopH inh -14, Mtb H37Rv -3% and Arbovirus inh 13.
COc1ccc(-c2cc(C(=O)OC3CCOC3=O)c3ccccc3n2)cc1 (centres undefined) was read as Mtb betalactam -11, RecA intein inh -3.2, YopH inh -30, Mtb H37Rv -9% and Arbovirus inh -1.
For COc1ccc(CCNC(=O)[C@H](C)NC(=O)N2CCn3c2nc2ccccc23)cc1OC the results were Mtb betalactam -2 and RecA intein inh -3.3.
Screening CCn1c(=O)c2ccccc2n(Cc2ccccc2C)c1=O returned Mtb betalactam -2 and RecA intein inh 1.8.
For COC(=O)c1ccccc1NC(=O)C1CCCO1 (centres undefined) the results were Mtb betalactam -8, RecA intein inh -1.7, YopH inh -16, Mtb H37Rv 2% and Arbovirus inh -2.
For CC(=O)c1c(C)nc(-c2cccc([N+](=O)[O-])c2)n1O the results were Mtb betalactam -6, RecA intein inh 9.4, Mtb H37Rv -2% and Arbovirus inh 10.
COc1cccc(C(=O)NCC(=O)N2CCC(C)CC2)c1 was read as Mtb betalactam -18, RecA intein inh 0.8, YopH inh -6, Mtb H37Rv -5% and Arbovirus inh 5.

Next part (6 carried over from the part before).
COc1ccc(-c2cc(C(=O)OC3CCOC3=O)c3ccccc3n2)cc1 (centres undefined) was read as Mtb betalactam -11, RecA intein inh -3.2, YopH inh -30, Mtb H37Rv -9% and Arbovirus inh -1.
For COc1ccc(CCNC(=O)[C@H](C)NC(=O)N2CCn3c2nc2ccccc23)cc1OC the results were Mtb betalactam -2 and RecA intein inh -3.3.
Screening CCn1c(=O)c2ccccc2n(Cc2ccccc2C)c1=O returned Mtb betalactam -2 and RecA intein inh 1.8.
For COC(=O)c1ccccc1NC(=O)C1CCCO1 (centres undefined) the results were Mtb betalactam -8, RecA intein inh -1.7, YopH inh -16, Mtb H37Rv 2% and Arbovirus inh -2.
For CC(=O)c1c(C)nc(-c2cccc([N+](=O)[O-])c2)n1O the results were Mtb betalactam -6, RecA intein inh 9.4, Mtb H37Rv -2% and Arbovirus inh 10.
COc1cccc(C(=O)NCC(=O)N2CCC(C)CC2)c1 was read as Mtb betalactam -18, RecA intein inh 0.8, YopH inh -6, Mtb H37Rv -5% and Arbovirus inh 5.
For Cc1ccc(C(=O)N/N=C\c2ccccn2)cn1 the results were Mtb betalactam -10, RecA intein inh -1.3 and Mtb H37Rv -1%.
Screening CS(=O)(=O)N1CCc2cc(C(=O)NC3CC3)ccc21 returned Mtb betalactam -4, RecA intein inh -0.5, Mtb H37Rv 5% and Arbovirus inh -2.
COc1ccc(C(=O)COC(=O)CCCN=C2NS(=O)(=O)c3ccccc32)c(OC)c1 was read as Mtb betalactam -16 and RecA intein inh -0.2.
`O=C(COC(=O)c1cccnc1Cl)c1ccc(OC(F)F)cc1` gave Mtb betalactam -4, RecA intein inh 0.8, Mtb H37Rv -10% and Arbovirus inh 1.
For CC(C)c1onc(C(=O)NCc2ccc(Cl)cc2)c1[N+](=O)[O-] the results were Mtb betalactam 5, RecA intein inh 3.1, YopH inh -22, Mtb H37Rv 11% and Arbovirus inh 8.
For COc1ccc(-c2cc(C(=O)NCCCn3ccnc3)c3ccccc3n2)c(OC)c1 the results were Mtb betalactam 4 and RecA intein inh -0.7.
For CSCCC(NC(=O)c1ccccc1)C(=O)NC1CC1 (centres undefined) the results were Mtb betalactam -29, RecA intein inh -0.3, YopH inh 2, Mtb H37Rv -2% and Arbovirus inh 3.
`CCOC(=O)c1c(C)n(C(C)C)c2ccc(OC)cc12` gave Mtb betalactam 19, RecA intein inh 1.4 and Mtb H37Rv 10%.
For COc1ccc(OC)c(NC(=S)N2CCc3ccccc3C2)c1 the results were Mtb betalactam 6, RecA intein inh 1.1, Mtb H37Rv 8% and Arbovirus inh -4.
NC(=O)C1(N2CCCCC2)CCN(C(=O)NC23CC4CC(CC(C4)C2)C3)CC1 was read as Mtb betalactam 2, RecA intein inh -2.8, YopH inh -2, Mtb H37Rv -2% and Arbovirus inh 6.
`COc1cccc(C(=O)Nc2cc3c4c(c2)CC(=O)N4CCC3)c1` gave Mtb betalactam 4 and RecA intein inh 16.
Screening O=C(C1CCC(=O)N(C2CC2)C1)N1CCN(c2ccc(Cl)cc2)CC1 (centres undefined) returned Mtb betalactam 0 and RecA intein inh -0.6.
For O=C(CSCc1ccc(Cl)cc1Cl)Nc1ccccc1C(=O)Nc1ccc(C(=O)O)cc1 the results were Mtb betalactam 5, RecA intein inh 0.9, Mtb H37Rv -4% and Arbovirus inh 9.
`NS(=O)(=O)c1ccc(NC(=O)CN2CCCN(S(=O)(=O)c3ccc(F)cc3)CC2)cc1` gave Mtb betalactam -1, RecA intein inh -1.3, Mtb H37Rv -1% and Arbovirus inh 5.
Nc1nnn(CC(=O)N/N=C/c2cccc3ccccc23)n1 was read as Mtb betalactam 2, RecA intein inh 3.2, YopH inh 1, Mtb H37Rv 4% and Arbovirus inh 10.
Screening CC(NC(=O)c1ccc(OC2CCN(S(=O)(=O)N(C)C)CC2)cc1)C1CC1 (centres undefined) returned Mtb betalactam 1, RecA intein inh -0.5, Mtb H37Rv -9% and Arbovirus inh 2.
`COC(=O)/C(NC(C)=O)=C(\C)c1ccc(Cl)cc1` gave Mtb betalactam -3, RecA intein inh -1.1, YopH inh -26, Mtb H37Rv 2% and Arbovirus inh 5.
For CCCN1Cc2cccc(C(=O)NC(CC(=O)OCC)c3ccc(C)cc3)c2C1=O (centres undefined) the results were Mtb betalactam -1, RecA intein inh 0.0, Mtb H37Rv -3% and Arbovirus inh -4.
`Cc1ccc(S(=O)(=O)CC(N)=O)cc1` gave Mtb betalactam -1, RecA intein inh -5.7, YopH inh -13, Mtb H37Rv -9% and Arbovirus inh -3.
`O=C1COc2ccc(C(=O)CSc3nc4ccccc4c(=O)n3-c3ccc(Cl)c(Cl)c3)cc2N1` gave Mtb betalactam 71, RecA intein inh 5.4, Mtb H37Rv 52% and Arbovirus inh -30.
`CC1(c2nnc(Cc3ccccc3)o2)CC(c2ccc(Cl)cc2)=NO1` (centres undefined) gave Mtb betalactam -2, RecA intein inh -0.2 and Mtb H37Rv -2%.
Cn1c(N)c(C(=O)COC(=O)CC2CC3CCC2C3)c(=O)n(C)c1=O (centres undefined) was read as Mtb betalactam 11, RecA intein inh -2.9, Mtb H37Rv 1% and Arbovirus inh 0.
`CC[N+](C)(C)c1cccc(O)c1` gave Mtb betalactam -10, RecA intein inh -2.9, YopH inh -35, Mtb H37Rv -10% and Arbovirus inh 14.
CCNc1cc(N2CCCC2)ccc1[N+](=O)[O-] was read as Mtb betalactam 8, RecA intein inh 0.2, YopH inh -21, Mtb H37Rv 0% and Arbovirus inh -4.
COc1ccc(C(=O)CNc2ccccc2CO)cc1 was read as Mtb betalactam 5, RecA intein inh 2.3, Mtb H37Rv -1% and Arbovirus inh -11.
For Cc1ccc(NC(=O)Cn2ccc([N+](=O)[O-])n2)cc1C the results were Mtb betalactam -9, RecA intein inh -1.1, Mtb H37Rv -4% and Arbovirus inh 4.
CC(C)[N+](C)(CCC(C(N)=O)(c1ccccc1)c1ccccc1)C(C)C was read as Mtb betalactam 0, RecA intein inh 0.9, Mtb H37Rv 6% and Arbovirus inh -2.
For O=C(CN1CCOCC1)Nc1nc2ccc(Cl)cc2s1 the results were Mtb betalactam 4 and RecA intein inh -1.0.
For Cc1ccc2nc(N3CCOCC3)c(C=O)cc2c1 the results were Mtb betalactam 0 and RecA intein inh 1.2.
For COC(=O)c1cc(O)c(O)c(O)c1 the results were Mtb betalactam 1, RecA intein inh -2.8, YopH inh -38, Mtb H37Rv 3% and Arbovirus inh -1.
`COc1ccc(CNS(=O)(=O)c2cc(Br)cc3c2N(C(C)=O)C(C)C3)cc1` (centres undefined) gave Mtb betalactam -2 and RecA intein inh -4.8.
For COc1ccc2c(c1)CCC/C2=N\Nc1nc(C(=O)NN)cs1 the results were Mtb betalactam 27, RecA intein inh 6.4 and Mtb H37Rv 6%.
Screening Cc1c(N(C(=O)c2ccccn2)C2(C(=O)NC3CCCCC3)CCCCC2)c(=O)n(-c2ccccc2)n1C returned Mtb betalactam -10, RecA intein inh -22, Mtb H37Rv -4% and Arbovirus inh 5.
Screening C=C(C)Cn1c(SCC(=O)NCc2ccco2)nc2sc3c(c2c1=O)CCC3 returned Mtb betalactam -2, RecA intein inh -0.8, YopH inh -39, Mtb H37Rv -6% and Arbovirus inh 2.
For COc1ccc(C(=O)c2cc([N+](=O)[O-])ccc2N2CCOCC2)cc1 the results were Mtb betalactam -3, RecA intein inh 1.3, YopH inh -34, Mtb H37Rv -2% and Arbovirus inh -17.
`N#C/C(=C/c1ccc(N2CCCCCC2)o1)c1cccc(F)c1` gave Mtb betalactam inconclusive, RecA intein inh 1.8, YopH inh -20, Mtb H37Rv 28% and Arbovirus inh 1.
For Cc1ccc(NC(=O)C2Cc3ccccc3O/C2=N\O)cc1C (centres undefined) the results were Mtb betalactam -1 and RecA intein inh -6.0.
For S=c1ccc2ccccc2[nH]1 the results were Mtb betalactam 75, RecA intein inh -0.6, Mtb H37Rv 46% and Arbovirus inh 7.
COc1ccc(-c2nc(CS(=O)CC(=O)NC3CCCc4ccccc43)c(C)o2)cc1OC (centres undefined) was read as Mtb betalactam -9, RecA intein inh 3.7, Mtb H37Rv -2%, Arbovirus inh 2 and Arbovirus inh repeat -3.
`Cc1cc(C)c(C#N)c(N2CCN(c3ccccc3F)CC2)n1` gave Mtb betalactam -1 and RecA intein inh 10.
Screening Cn1cnnc1SCc1ccc(C(=O)N=Nc2c(O)n(Cc3ccc(Cl)cc3)c3ccccc23)cc1 returned Mtb betalactam 2, RecA intein inh 2.5, YopH inh -33, Mtb H37Rv inconclusive and Arbovirus inh -17.
Screening COc1ccc(C(=O)OCC[N+]2(C)CCCCC2)cc1 returned Mtb betalactam -6, Mtb H37Rv -1% and Arbovirus inh -7.
For Cc1ccc(S(=O)(=O)NC2CCCCC2)c(C)c1NS(C)(=O)=O the results were Mtb betalactam -4, RecA intein inh -0.2, Mtb H37Rv 7% and Arbovirus inh 7.
CCOC(=O)/C(C#N)=C/C1=C(N2CCOCC2)C(C)(C)OCC1 was read as Mtb betalactam -1, RecA intein inh 2.1 and Mtb H37Rv 5%.

Source: PubChem BioAssay (several laboratories)

A portion of the library; the hit share may differ from the screen's.
